Mtb growth: M. tuberculosis H37Rv growth inhibitors, H37Rv strain (AID 1626); M. tuberculosis H37Rv growth inhibition; higher % means a stronger effect; one-dose inhibition, % at 10 µM; IC50 in µM for titrated hits; hit rate 0.95% among 220,000;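 active = confirmed in a dose series; inconclusive = inhibition above 80% but not taken into the dose series; inactive = below 80% or under 30% at every dose of the series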;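 also: bacteria incubated seven days before Alamar blue readout; 0% = bacteria only wells and 100% = bacteria with antibiotic wells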
RecA intein inh: blocks M. tuberculosis RecA intein splicing | P9WHJ3 | cell-free RecA intein splicing, fluorescence | inhibition, %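 (about 9 µM by stock and volumes)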 | hit rate 0.75% among 290,000 | AID 2221; in the data active = inhibition above about 30%; inconclusive = no clear call, values can overlap the other calls;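 also: 0% = vehicle wells and 100% = reference inhibitor control wells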
Target sequence (P9WHJ3 whole entry, looked up): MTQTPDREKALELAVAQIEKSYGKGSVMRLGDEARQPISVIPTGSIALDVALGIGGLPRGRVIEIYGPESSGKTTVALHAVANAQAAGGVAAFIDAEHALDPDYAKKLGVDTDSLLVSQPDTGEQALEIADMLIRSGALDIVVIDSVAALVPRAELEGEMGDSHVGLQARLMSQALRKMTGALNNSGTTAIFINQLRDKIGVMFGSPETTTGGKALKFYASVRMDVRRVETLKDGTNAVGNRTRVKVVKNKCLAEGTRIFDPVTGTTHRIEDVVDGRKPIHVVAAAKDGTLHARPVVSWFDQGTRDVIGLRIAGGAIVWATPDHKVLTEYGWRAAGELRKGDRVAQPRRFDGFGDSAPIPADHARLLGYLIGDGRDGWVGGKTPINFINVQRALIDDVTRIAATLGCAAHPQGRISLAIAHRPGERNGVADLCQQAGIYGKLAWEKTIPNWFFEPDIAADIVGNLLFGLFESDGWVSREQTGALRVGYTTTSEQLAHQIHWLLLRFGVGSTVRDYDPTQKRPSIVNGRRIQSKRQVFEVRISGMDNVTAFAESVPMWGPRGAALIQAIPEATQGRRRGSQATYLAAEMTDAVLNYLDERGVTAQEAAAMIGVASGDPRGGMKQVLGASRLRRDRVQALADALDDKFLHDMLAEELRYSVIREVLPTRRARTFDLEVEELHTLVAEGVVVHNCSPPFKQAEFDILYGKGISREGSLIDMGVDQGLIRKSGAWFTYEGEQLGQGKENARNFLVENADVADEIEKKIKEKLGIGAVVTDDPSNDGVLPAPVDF
Mtb bLac sens: beta-lactam sensitization of Mtb H37Rv | M. tuberculosis H37Rv growth with meropenem, percent inhibition; hits of this screen are not shown here | hit rate 0.27% among 330,000 | AID 434955 | inhibition, % at 25 µM;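 active = about 74% or more and at least 40 points above the plate without the antibiotic, then above 30% in a dose series; inconclusive = first-round hits that could not be retested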;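 also: growth measured after seven days incubation then overnight dye step; 0% = bacteria only wells and 100% = bacteria with antibiotic; twin plates without the antibiotic show which effects depend on it; some results filed as inactive read as strong as hits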
Arbovirus inh: antivirals against arbovirus infection | arbovirus infection cell-based antiviral screen | inhibition, % at 10 µM | hit rate 0.37% among 200,000;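 active = inhibition from about 30%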;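 also: bluetongue infection of BSR cells; cell survival read as ATP light after 72 h; 0% = infected wells without compound and 100% = uninfected wells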
YopH inh: inhibitors of Yersinia enterocolitica YopH tyrosine phosphatase | fluorescence Ex485/Em525 | inhibition, %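 (about 10 µM by stock and volumes)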 | hit rate 0.16% among 140,000 | AID 898;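 active = inhibition of 50% or more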;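 also: controls were vehicle for no effect and minimum signal wells for full effect; inactives centre near -20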
Arbovirus inh repeat: recorded beside Arbovirus inh, whose call it bears; inhibition, %; measured here: 10K subset replicate screen; many hits read low in the repeat;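 first of two repeat runs on a subset; 0% = infected and 100% = uninfected wells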
* = called active by the depositor; ? = inconclusive; . = no result given. A portion of the library; the hit share may differ from the screen's.

SMILES	Mtb growth	RecA intein inh	Mtb bLac sens	Arbovirus inh	YopH inh	others
Cc1ccc(-c2nn(-c3cccc(F)c3)cc2CN2CCN(c3ccccn3)CC2)o1	7%	8.9	88	-3	.
CCc1ccc2[nH]c(=O)c(CN(CC3CCCO3)C(=S)NCc3ccco3)cc2c1 (stereo not given)	-1%	3.2	0	.	.
COc1ccc(-c2cc(C)no2)cc1S(=O)(=O)N(C)c1ccc(C)c(C)c1	.	6.8	3	.	.
Cc1nnnn1CC(=O)Nc1ccccc1[N+](=O)[O-]	-3%	-0.4	4	1	-24
COc1ccc(CCNC(=O)c2cccc(NC3=NC4CS(=O)(=O)CC4S3)c2)c(OC)c1 (stereo not given)	.	-0.2	?	.	.
O=C(COC(=O)c1cc(Cl)ccc1[N+](=O)[O-])Nc1cccc2ccccc12	-9%	-4.1	1	0	-23
CC(C)C1(C)C(=O)N=C2c3ccccc3C(=O)N21 (stereo not given)	10%	-0.1	-6	-1	-39
CCOC(=O)c1sc(NC(=O)CSc2nnc(-c3ccc(OC)cc3)n2CCOC)nc1C	-9%	2.5	?	-5	-1
CCCCOCCCNS(=O)(=O)Cc1ccccc1	1%	1.9	-6	2	-35
COCCN(C(=O)COc1ccc(Cl)cc1)c1nnc(-c2cccnc2)s1	-7%	0.2	-8	3	-11
COc1ccccc1OCc1nc(C#N)c(N2CC(C)CC(C)C2)o1 (stereo not given)	.	1.2	1	11	3	Arbovirus inh repeat=-4
COC(=O)/C=C1\C(=O)N(c2nc3ccc(OC)cc3s2)C(=S)N1c1ccc(F)cc1	.	-6.2	12	-3	-22
CC1CCc2c(sc3nc4n(c(=O)c23)CCS4)C1 (stereo not given)	1%	0.9	3	-6	-20
COc1ccc(-n2c(SCC(=O)NCc3ccco3)nnc2-c2c[nH]c3ccccc23)cc1	38%	10	6	-9	-1
Clc1ccc(-c2cn(-c3ccccc3)c3[n+]2CCS3)cc1	2%	1.0	-4	6	.
COc1ccc(/C=C/C(=O)O)cc1S(=O)(=O)N1CCCCC1	5%	-0.2	-2	13	.
CCOc1ccc(NC(=O)CC2Nc3ccccc3NC2=O)cc1 (stereo not given)	5%	-2.6	2	-2	.
CCOc1ccccc1NC(=O)CCS(=O)(=O)c1cccs1	.	0.4	-2	.	.
COc1ccc(Cl)cc1NC(=O)C(C)N(C)Cc1cccc(Cl)c1Cl (stereo not given)	-4%	5.9	6	2	-7
CC(C)(C)NC(=O)NC(=O)CN1CCCCCCC1	7%	.	1	3	.
COc1ccccc1CN1CCC(n2nccc2NC(=O)CCc2ccccc2)CC1	.	1.9	2	.	.
Cc1cc(C)n(Cc2ccc(F)cc2)c(=O)c1C#N	-1%	-2.2	0	-1	-8
O=C(c1ccco1)N1CCN(c2ccnc3cc(Cl)ccc23)CC1	5%	-0.7	7	-7	.
CCC(=O)Nc1cc2nn(-c3ccccc3)nc2cc1Cl	-4%	-3.1	-11	0	-4
O=C(Cc1ccccc1)Nc1ccccc1C(=O)N1CCN(c2ccccc2)CC1	.	-0.8	-4	.	.
Cc1c(OCC(=O)NCC2CCC(C(=O)O)CC2)ccc2c(-c3ccccc3)cc(=O)oc12 (stereo not given)	.	6.7	-5	.	.
Fc1ccc(F)c(C2=NNC(=Nc3ccccc3F)SC2)c1	6%	6.8	0	-23	-6
CCCNC(=O)C1CCN(S(=O)(=O)c2cccs2)CC1	9%	-2.6	2	5	.
Cc1ccc(-n2c(-c3cc(C)n(C)n3)n[nH]c2=S)cc1	-5%	-1.2	-4	6	-4
CCCCC(=O)Nc1ccc(NC(=O)C2CC2)nc1	-1%	-2.2	18	-1	-20
Cc1nc2c(C(=O)NCCC(C)C)c[nH]n2c(=O)c1Cl	0%	-2.1	3	36*	-11
CCOc1ccc(Oc2ccccc2NC(=O)CSCC(=O)Nc2cc(C)on2)cc1	.	1.5	-2	.	.
Cc1c(NC(=O)C2C3C=CC(C3)C2C(=O)O)c(=O)n(-c2ccccc2)n1C (stereo not given)	-11%	0.2	-10	3	-27
COc1ccc(CNC(=O)Cn2nc([N+](=O)[O-])cc2C)cc1	.	-1.0	0	.	.
CN(C)c1ccc(C(=O)Nc2ccc(S(=O)(=O)Nc3nccs3)cc2)cc1	.	-0.4	1	.	.
CCCN(Cc1cc2cc(OC)ccc2[nH]c1=O)C(=O)c1ccco1	-15%	0.3	-12	.	.
Cc1cc(N2C(=O)C(O)=C(C(=O)c3cc4ccccc4o3)C2c2ccc([N+](=O)[O-])cc2)no1 (stereo not given)	.	-0.9	6	.	.
CC(=O)Nc1nc2ccc(-c3nc4ccccc4o3)cc2s1	-6%	-1.5	0	3	-23
Cn1c(=O)c2ccccc2n(CC(=O)NCCC2=CCCCC2)c1=O	.	8.3	8	.	.
CC1(c2ccc(Cl)cc2)NC(=S)N2C1NC(=S)N2c1ccccc1 (stereo not given)	65%	6.1	93	.	.
CC1(C)Cc2c(C#N)c(N3CCOCC3)nc(-c3ccccc3)c2CO1	13%	1.4	-5	0	-30
O=C(CN1CCN(c2ccccn2)CC1)N(c1ccccc1)c1ccc2ccccc2c1	.	.	6	3	6	Arbovirus inh repeat=-20
O=C(NNC(=O)c1ccccc1)C(=O)N1CCCCC1	-12%	-2.5	0	-1	-2
Cn1c(SCC(=O)NC2CCCC2)nnc1-c1ccccn1	.	-2.1	0	.	.
COc1ccc(NC(=O)Cn2nnc(C(=O)NCc3ccccc3)c2N)c(OC)c1	-1%	-0.5	-9	-8	.
C[C@H](NC(=O)[C@@H]1Cc2ccccc2CN1)C(=O)Nc1ccc2c(c1)OCO2	.	6.1	-5	.	.
O=C(CCCN1C(=O)/C(=C\c2cccs2)SC1=S)Nc1ccc(O)cc1C(=O)O	.	32*	9	.	.
O=C(CSc1ccc2nnc(-c3ccc(F)cc3)n2n1)N1CCCc2ccccc21	1%	-1.0	-9	-6	-2
CCN1CCN(c2ccc(S(=O)(=O)N3CCOCC3)cc2NC(=O)c2ccc(C(F)(F)F)cc2)CC1	.	1.9	0	.	.
O=C1CCC(c2ccc3c(c2)CCC3)=NN1	.	-0.8	2	.	.
O=S(=O)(c1cccs1)N1CCN(Cc2ccccc2)CC1	-3%	-0.7	-3	-1	-40
O=c1oc(-c2ccc(F)cc2)nc2ccsc12	60%	26	84	-8	-26
COC(=O)C[C@H]1c2cc(F)ccc2S(=O)(=O)N1Cc1ccccc1OC	7%	8.0	0	.	.
COc1ccc(C2CC(c3ccc(Cl)cc3)Nc3nc(NC(=O)c4ccco4)nn32)cc1 (stereo not given)	15%	21	.	-5	11
Cc1cc(N/N=C/c2ccco2)c2ccccc2n1	-2%	-1.1	5	2	.
Cc1ccc(C(=O)CC(=O)COc2ccc(Cl)cc2C)cc1	?	1.3	94	-5	-52
COc1cccc(NC(=O)CN(C)C(=O)c2cccc(S(=O)(=O)N3CCN(c4ccc(F)cc4)CC3)c2)c1	.	5.1	-4	.	.
COC(=O)C(C(=O)OC)C(c1ccccc1)C(C(=O)c1ccccc1)[N+](=O)[O-] (stereo not given)	7%	1.6	-5	.	.
COc1ccc(-c2nc(NC(=O)C3=NN(c4cccc(C)c4)C(=O)CC3)sc2C)cc1	3%	.	-5	19	.
CN(Cc1ccc(F)cc1)C(=O)c1ccc(NS(=O)(=O)c2ccc3[nH]c(=O)[nH]c3c2)cc1	.	1.8	-3	.	.

Next compounds.
SMILES	Mtb growth	RecA intein inh	Mtb bLac sens	Arbovirus inh	YopH inh	others
Cc1ccc(C2=NNC(C(O)C(O)C(O)CO)S2)cc1 (stereo not given)	6%	0.5	-9	-3	7
O=C(CCC1CCCN(C(=O)c2ccco2)C1)NCc1ccccc1F (stereo not given)	-1%	-0.8	-4	1	.
Cc1ccc(OCCN2C(=O)S/C(=C\c3ccc(C)o3)C2=O)cc1	2%	1.5	-4	-2	-30
CC(/C=C1\SC(=S)N(CC(=O)O)C1=O)=C\c1ccccc1	-11%	9.5	-12	.	.
CCC1Sc2ccc(S(=O)(=O)CCC(=O)Nc3cccc(Br)c3)cc2NC1=O (stereo not given)	.	6.2	2	.	.
CCN(CC)c1ccc(NC(=O)c2ccc(=O)[nH]c2)cc1S(=O)(=O)Nc1ccccc1OC	-1%	0.7	50	-7	.
CCOc1ccc(CCNC(=O)c2ccc3ccccc3n2)cc1OCC	.	2.8	5	.	.
O=C(Nc1c2c(nn1-c1ccc(F)cc1)CSC2)c1ccc(S(=O)(=O)N2CCOCC2)cc1	1%	2.1	-1	6	-45
O=C(NC12CC3CC(CC(C3)C1)C2)c1cnccn1	-4%	1.0	1	2	-8
Cc1ccc(OCCCCn2cnc3ccccc32)c(C)c1	0%	11	82	11	-1
O=C(CN1CCC(NC(=O)c2ccccc2Cl)CC1)NCc1ccccc1	.	0.8	0	.	.
COc1ccc(N(CC(=O)N2CCN(C)CC2)S(=O)(=O)c2ccccc2)cc1	.	-0.9	-3	.	.
COc1ccc(Nc2nnc(SCc3cn4c(C)cccc4n3)s2)cc1	8%	-0.8	2	-2	-30
CC(C)CCNC(=O)C(=O)Nc1cc2c3c(c1)CCC(=O)N3CCC2	.	2.1	1	.	.
O=CN1CCN(C(=O)c2ccccc2F)CC1	-4%	-1.0	-2	-2	-29

No new results follow: an excerpt of the list.
SMILES	Mtb growth	RecA intein inh	Mtb bLac sens	Arbovirus inh	YopH inh	others
COc1ccc(N(CC(=O)N2CCN(C)CC2)S(=O)(=O)c2ccccc2)cc1	.	-0.9	-3	.	.
COc1ccc(Nc2nnc(SCc3cn4c(C)cccc4n3)s2)cc1	8%	-0.8	2	-2	-30
CC(C)CCNC(=O)C(=O)Nc1cc2c3c(c1)CCC(=O)N3CCC2	.	2.1	1	.	.
O=CN1CCN(C(=O)c2ccccc2F)CC1	-4%	-1.0	-2	-2	-29

Remaining list, next part:
SMILES	Mtb growth	RecA intein inh	Mtb bLac sens	Arbovirus inh	YopH inh	others
CCc1nc2n[nH]c(N)c2c2c1CCCC2	0%	-3.3	5	-1	3
CCOc1ccc(N(CC(=O)NCc2ccc(Cl)cc2)S(=O)(=O)c2ccccc2)cc1	.	2.4	0	.	.
CCC(=O)c1ccc(N2CCCCCC2)c(F)c1	3%	5.5	3	1	-23
COc1ccccc1N1CCN(Cc2ccc(C(=O)O)cc2)CC1	.	1.1	-4	.	.
Cc1nn(C)c(C)c1S(=O)(=O)N(CC(=O)Nc1ccccn1)c1ccc(C(C)C)cc1	0%	0.2	3	6	-34	Arbovirus inh repeat=1
N=c1oc2ccccc2cc1C(=O)NC1CCCCCC1	.	2.5	21	.	.
c1ccc2nc(-c3ccc(-n4ccnc4)cc3)ccc2c1	.	0.1	90	.	.
CCCN(CCC)C(=S)NC(=O)c1ccc(Cl)cc1Cl	?	3.3	99	-7	-27
Cn1cc([N+](=O)[O-])c(C(=O)Nc2cc(Oc3cccnc3)cc([N+](=O)[O-])c2)n1	-1%	-1.6	0	-37	-13
CCOc1ccc(CN2CCN(S(=O)(=O)c3ccc(NC(C)=O)cc3)CC2)cc1	2%	-1.0	2	5	.
OC(CC#CCN1CCCCCC1)(c1ccccc1)C1CCCC1 (stereo not given)	.	-0.9	-8	.	.
Cc1noc(-c2ccccc2OC(=O)c2ccccc2)n1	2%	5.3	-1	-6	-45
Fc1ccc(Sc2nc(-c3ccccc3)nnc2C(F)(F)F)cc1	90µM*	71*	100	-44	-20
CCN(CC)S(=O)(=O)c1ccc(N/N=C(\C)c2ccncc2)c([N+](=O)[O-])c1	.	-0.3	-2	.	.
COc1ccc(/C=C(/NC(=O)c2ccccc2)C(=O)N/N=C/c2cccs2)cc1OC	-5%	0.8	-10	-2	-17
O=C(NCc1cccnc1)c1cnn2ccccc12	-1%	-0.3	-4	19	-42	Arbovirus inh repeat=-2
COc1nc(Cl)cn(-c2ccc(Cl)cc2)c1=O	0%	-0.2	-10	-2	-9
Cc1nc2c(c3c1[nH]c1ccccc13)C(O)CC(C)(C)C2 (stereo not given)	0%	-57	0	54*	-28
COc1cccc(OC)c1OCCCCn1cnc2ccccc2c1=O	0%	-1.1	6	-1	.
O=c1cc(N2CCCCC2)c2ccccc2o1	-2%	.	-6	0	.
COc1ccc(-c2nc(-c3cccc(C)c3)no2)cc1OC	4%	-2.5	.	21	-28
C/C(=N\Nc1cccc(C(=O)O)c1)c1ccc(Cl)s1	12%	-1.9	8	20	.
COC(=O)c1cc(S(=O)(=O)NCc2ccc3c(c2)OCO3)c[nH]1	.	-1.3	-12	.	.
CC(=O)Nc1ccc(C(=O)Nc2cccc(S(=O)(=O)NC3=NCCC3)c2)cc1	.	0.3	0	.	.

Grouped by structure, those above with a CF3 group.
SMILES	Mtb growth	RecA intein inh	Mtb bLac sens	Arbovirus inh	YopH inh	others
CCN1CCN(c2ccc(S(=O)(=O)N3CCOCC3)cc2NC(=O)c2ccc(C(F)(F)F)cc2)CC1	.	1.9	0	.	.
Fc1ccc(Sc2nc(-c3ccccc3)nnc2C(F)(F)F)cc1	90µM*	71*	100	-44	-20

Screening results: PubChem, several laboratories
